High-throughput results (PubChem)
NPYLR7 ag = mosquito NPYLR7 agonism; hit rate 0.15% among 270,000; activation, % at 10 µM; HEK293T NPYLR7/Galpha15, GCaMP6s calcium fluorescence; in the data active = activation above about 40%;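 note: 0% = vehicle and 100% = reference agonist at the receptor; some compounds past the cut are filed as inactive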
NPYLR7 ag max-min = also measured in NPYLR7 ag; calls as there; activation, %; measured here: Max-Min RFU normalised activation; some inactives read as strong as hits;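 span of the calcium signal over five minutes; 0% = vehicle and 100% = native peptide agonist; compound fluorescence can raise it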
* = called active by the depositor.

Every second line gives: NPYLR7 ag	NPYLR7 ag max-min
1: Cc1c(C(C)NC2CCN(Cc3ccccn3)CC2)cnn1-c1ccc(F)cc1F (stereo not given)
 : 14	8
2: Cc1ccc(F)c(S(=O)(=O)NCc2cc3cc(F)ccc3s2)c1
 : 5	0
3: Cc1ccccc1CN1CCN(c2nc3c(c(=O)[nH]c(=O)n3C)n2Cc2cccc3ccccc23)CC1
 : -8	-10
4: CN(Cc1cc(-c2cccs2)n[nH]1)C(=O)c1cn(CC2CCCNC2)nn1 (stereo not given)
 : 3	14
5: CNc1nc2[nH]c(=O)c(C)nc2c(=O)[nH]1
 : 3	2
6: Nc1cc[n+](CC(=O)c2ccc3c(c2)OCCO3)cc1
 : -2	-6
7: Cc1ccc(-c2nnc(CN3CCCC3c3nc4ccccc4s3)o2)n1C (stereo not given)
 : 6	4
8: Cc1ccc(-c2noc(CN3c4ccc(S(N)(=O)=O)cc4CC3C)n2)cc1 (stereo not given)
 : 0	11
9: CCCC(=O)OCC(O)CN(Cc1cccc(OC)c1)CC1CCCO1 (stereo not given)
 : 28	26
10: Cc1ccc2nc(CN(C)C(=O)C3CC(C(C)C)=NO3)[nH]c2c1 (stereo not given)
 : 3	3
11: CCOC(=O)c1[nH]c2ccc(OC)cc2c1NC(=S)N1CCN(C(=O)OCC)CC1
 : -9	-14
12: Cn1ccnc1SCc1ccc(C(=O)NCCS(C)=O)o1 (stereo not given)
 : 6	3
13: Cc1ccc(C2(O)CCN(C(=O)C(C)Cn3cncn3)CC2)nc1 (stereo not given)
 : -5	-7
14: CCc1cc(CN2CCN(CC(=O)N3CCCCC3)CC2)c(O)c(C(C)(C)C)c1
 : -1	-4
15: O=C(CN(Cc1ccsc1)C1CC1)N1CCc2sccc2C1
 : 4	2
16: CCOC(=O)c1c(C)[nH]c(C(=O)C(=O)N2CCN(Cc3ccccc3)CC2)c1-c1ccccc1
 : 10	3
17: COc1ccc(CCN(Cc2sccc2C)C(=O)CN(CC(C)C)C(=O)Nc2ccc(SC)cc2)cc1OC
 : -1	11
18: CCOCCCNc1nncc(-c2ccccc2F)n1
 : 6	7
19: COc1ccc(/C=C2\C=C(c3ccccc3)N(c3cccc(Br)c3)C2=O)cc1
 : 1	8
20: CCCNC(=O)C1(C)CCN(CCS(=O)(=O)c2ccc(C)cc2)C1 (stereo not given)
 : 8	8
21: O=C(NN=C1c2ccccc2-c2ccccc21)c1cccc(S(=O)(=O)N2CCCCC2)c1
 : 0	-2
22: CCC(C=NNc1nc(C)cc(C)n1)CC
 : 8	5
23: CCCCN(CC(=O)N1c2ccccc2-n2cccc2C1c1ccc(Cl)cc1)C(=O)c1ccc([N+](=O)[O-])cc1 (stereo not given)
 : 6	3
24: Cc1ccc(C(=O)Cn2nc(-c3cccs3)c3sc(N4CCOCC4)nc3c2=O)cc1
 : 0	-3
25: O=C(CSc1ncn[nH]1)c1c[nH]c2ccccc12
 : 11	2
26: O=C(CCN(CCCN1CCOCC1)c1nc(-c2cccs2)nc2ccccc12)NCc1ccco1
 : 20	29
27: Cc1cc2c(nn1)CCc1nonc1-2
 : 11	6
28: COCCCNC(=O)C(NC(=O)c1ccccc1C)C1CCN(C(=O)Nc2ccc(C)cc2)CC1 (stereo not given)
 : 2	12
29: O=C(O)c1ccnc(-c2ccnc(-c3ccccc3)n2)c1
 : 26	17
30: Cc1[nH]c(=O)[nH]c(=O)c1CCc1nnc(SCC(=O)Nc2ccccc2)o1
 : -7	-15
31: Cc1ccc(C2NC(=O)N(C)C3=C2C(=O)N(CC(=O)N2CCN(C(=O)c4ccco4)CC2)C3)cc1 (stereo not given)
 : -2	2
32: CCC(NC1CCN(C(=O)c2ccccc2)CC1)c1ccnn1C (stereo not given)
 : 12	9
33: CSc1cccc(CNCc2cccnc2N2CCN(C(C)=O)CC2)c1
 : 5	0
34: Cc1ccc(CN2CCCC(N3CCN(Cc4ccc5c(c4)OCO5)CC3)C2)s1 (stereo not given)
 : 4	2
35: Cc1nc2c(C)cccn2c(=O)c1NC(=O)c1cccc([N+](=O)[O-])c1
 : -3	-4
36: Cc1cc(O)c(C(c2ccccc2)N2CCN(c3ccc(F)cc3)CC2)c(=O)n1Cc1ccco1 (stereo not given)
 : 8	1
37: O=C(Cc1csc(-c2ccccn2)n1)Nc1ccccc1SCc1ccccc1
 : 0	3
38: O=C1c2ccccc2NC(c2ccc(N3CCOCC3)cc2)N1C1CC1 (stereo not given)
 : -23	-23
39: CC1CCN(C(=O)c2cccc(S(=O)(=O)N3CCCCC3)c2)c2ccccc2S1 (stereo not given)
 : -12	-13
40: CCNS(=O)(=O)c1cccnc1Nc1ccc(CC)cc1
 : -12	-13

Reformatted: entries from further up.
cpd	SMILES	NPYLR7 ag	NPYLR7 ag max-min
19	COc1ccc(/C=C2\C=C(c3ccccc3)N(c3cccc(Br)c3)C2=O)cc1	1	8
20	CCCNC(=O)C1(C)CCN(CCS(=O)(=O)c2ccc(C)cc2)C1 (stereo not given)	8	8
21	O=C(NN=C1c2ccccc2-c2ccccc21)c1cccc(S(=O)(=O)N2CCCCC2)c1	0	-2
22	CCC(C=NNc1nc(C)cc(C)n1)CC	8	5
23	CCCCN(CC(=O)N1c2ccccc2-n2cccc2C1c1ccc(Cl)cc1)C(=O)c1ccc([N+](=O)[O-])cc1 (stereo not given)	6	3
24	Cc1ccc(C(=O)Cn2nc(-c3cccs3)c3sc(N4CCOCC4)nc3c2=O)cc1	0	-3
25	O=C(CSc1ncn[nH]1)c1c[nH]c2ccccc12	11	2
26	O=C(CCN(CCCN1CCOCC1)c1nc(-c2cccs2)nc2ccccc12)NCc1ccco1	20	29
27	Cc1cc2c(nn1)CCc1nonc1-2	11	6
28	COCCCNC(=O)C(NC(=O)c1ccccc1C)C1CCN(C(=O)Nc2ccc(C)cc2)CC1 (stereo not given)	2	12
29	O=C(O)c1ccnc(-c2ccnc(-c3ccccc3)n2)c1	26	17
30	Cc1[nH]c(=O)[nH]c(=O)c1CCc1nnc(SCC(=O)Nc2ccccc2)o1	-7	-15
31	Cc1ccc(C2NC(=O)N(C)C3=C2C(=O)N(CC(=O)N2CCN(C(=O)c4ccco4)CC2)C3)cc1 (stereo not given)	-2	2
32	CCC(NC1CCN(C(=O)c2ccccc2)CC1)c1ccnn1C (stereo not given)	12	9
33	CSc1cccc(CNCc2cccnc2N2CCN(C(C)=O)CC2)c1	5	0
34	Cc1ccc(CN2CCCC(N3CCN(Cc4ccc5c(c4)OCO5)CC3)C2)s1 (stereo not given)	4	2
35	Cc1nc2c(C)cccn2c(=O)c1NC(=O)c1cccc([N+](=O)[O-])c1	-3	-4
36	Cc1cc(O)c(C(c2ccccc2)N2CCN(c3ccc(F)cc3)CC2)c(=O)n1Cc1ccco1 (stereo not given)	8	1
37	O=C(Cc1csc(-c2ccccn2)n1)Nc1ccccc1SCc1ccccc1	0	3
38	O=C1c2ccccc2NC(c2ccc(N3CCOCC3)cc2)N1C1CC1 (stereo not given)	-23	-23
39	CC1CCN(C(=O)c2cccc(S(=O)(=O)N3CCCCC3)c2)c2ccccc2S1 (stereo not given)	-12	-13
40	CCNS(=O)(=O)c1cccnc1Nc1ccc(CC)cc1	-12	-13

(cont.)
Every second line gives: NPYLR7 ag	NPYLR7 ag max-min
41: CCOC(=O)CNC(=O)CSc1nnc2n1CCN2c1ccccc1
 : -4	-4
42: CCOC(=O)C(C#N)=Cc1cc2ccc(C)cc2nc1N1CCCCC1
 : -2	-7
43: Cc1cccc(-c2nc(C)c(C)c(N3CCN(S(=O)(=O)c4cc(Cl)ccc4Cl)CC3)n2)c1
 : 14	26
44: CCc1ccc(S(=O)(=O)Oc2ccc(S(C)(=O)=O)cc2)s1
 : -3	-7
45: COc1cccc(NC(=O)C2(C)CCN2C(=O)CCc2cccs2)c1 (stereo not given)
 : 8	5
46: CCN1CCN(c2ccccc2CNCCc2csc(C)n2)CC1
 : -1	-4
47: CC1CN(C(=O)CSc2nccn2C)C(c2ccccc2)CO1 (stereo not given)
 : 1	-1
48: Cc1cc(O)c(CN2CCCCCC2)c2c1C(=O)/C(=C/c1ccncc1)O2
 : 7	6
49: COc1cccc(CSc2nnc(C(C)NC(=O)COc3ccccc3)n2-c2cc(Cl)ccc2Cl)c1 (stereo not given)
 : -2	10
50: O=C(c1cc2c(s1)CCCC2)N1CCC(Cn2cc(CCO)nn2)CC1
 : 5	1
51: COc1cccc(C=C2N=C(c3cc(OC)c(OC)c(OC)c3)OC2=O)c1
 : 2	0
52: Cc1c(NC(=O)c2ccco2)cccc1C(=O)N1CCN2CCNC(=O)C2C1 (stereo not given)
 : 7	5
53: Cc1nc(SC(C)c2ccccc2)[nH]c(=O)c1CC(=O)N1CCN(c2ccccc2)CC1 (stereo not given)
 : -2	-7
54: CC(C)Cc1ccc(CC(=O)Nc2ccccc2CN2CCCC2C(N)=O)cc1 (stereo not given)
 : 13	12
55: Brc1ccc(Oc2ncnc3sccc23)c(Br)c1
 : 0	-3
56: COc1ccc(CCC(=O)Nc2c(C)nc3scc(C)n3c2=O)cc1
 : 5	-1
57: Cc1ccc(C2c3c(C)noc3N=C3CC(C)(C)CC(=O)C32)cc1 (stereo not given)
 : 4	3
58: CCn1c(C2CCCN(Cc3nc4ccc(F)cc4[nH]3)C2)n[nH]c1=O (stereo not given)
 : -4	-4
59: O=C(CN(CCN1CCOCC1)C(=O)c1ccc(-c2ccccc2)cc1)N(Cc1ccc2c(c1)OCO2)Cc1ccco1
 : -2	6
60: CC(C)N1CCN(C(=O)CCNc2nc(CCN)nc3ccccc23)CC1
 : -6	-9
61: COC(=O)C(Cc1ccc(OCCn2c(=O)sc3cc(C(=O)c4ccccc4)ccc32)cc1)C(=O)OC
 : -10	-17
62: O=C1N=C(N2CCOCC2)SC1=Cc1cccnc1
 : -2	-2
63: Cc1ccc2oc(CN(Cc3cc(F)ccc3F)C(=O)COCc3ccccc3)nc2c1
 : 1	-12
64: CN(Cc1cccc(Cl)c1)C1CCOC1=O (stereo not given)
 : 14	9
65: CCOC(=O)C1=C(C)NC(C)=C(C(=O)OC)C1c1ccccc1 (stereo not given)
 : 9	8
66: CCC(=O)Nc1sc2c(c1-c1nc3ccccc3s1)CCN(C)C2
 : 4	4
67: C=CCn1c(O)c(C#N)c(C)cc1=O
 : 9	18
68: CCc1c(C)nn(CC(=O)N2CC[C@H](CO)[C@H](O)C2)c1C
 : -1	-5
69: Cc1cccc(Nc2ccc(N3CCN(C(=O)CCC4CCCCC4)CC3)nn2)n1
 : 6	3
70: O=C(Cn1nc(-c2ccccc2)c2sc(N3CCOCC3)nc2c1=O)c1ccc2c(c1)CCCC2
 : -4	-8
71: CCC(C)C(NC(C)=O)C(=O)Nc1ccncc1 (stereo not given)
 : 1	-1
72: Cc1cc(NCCN2CCOCC2)c2cc(OC(F)(F)F)ccc2n1
 : 2	0
73: CCC1COCCN1C(=O)Nc1ccc(-c2nccc(C)n2)cc1 (stereo not given)
 : 6	2
74: CCOc1ccccc1NC(=O)c1oc2ccccc2c1NC(=O)c1ccc(C)cc1
 : -9	-4
75: CN1C(=O)C2(NC(=O)c3ccccc3N2C)c2ccccc21 (stereo not given)
 : 1	6
76: OC(CN1CCCC1c1ccccc1)c1ccccc1Cl (stereo not given)
 : -2	-2
77: O=C(Nc1ccc2c(c1)CN(C(=O)Nc1cccs1)CC2)c1ccccn1
 : -1	-7
78: Cc1ccc(C)c(S(=O)(=O)Nc2cc(-c3ccccc3)nn2C2CCS(=O)(=O)C2)c1 (stereo not given)
 : 0	-1
79: O=C(c1cc(=O)n(-c2ccccc2)[nH]1)N1CCC2(CCCO2)CC1
 : 7	5
80: COC(=O)CSc1nc(-c2ccco2)nc2c1c(=O)n(C)c(=O)n2C
 : 3	0

Compound profiles (already shown).
Profile of OC(CN1CCCC1c1ccccc1)c1ccccc1Cl (stereo not given) = NPYLR7 ag: -2; NPYLR7 ag max-min: -2
Profile of CCOc1ccccc1NC(=O)c1oc2ccccc2c1NC(=O)c1ccc(C)cc1 = NPYLR7 ag: -9; NPYLR7 ag max-min: -4

Next section:
Every second line gives: NPYLR7 ag	NPYLR7 ag max-min
81: COc1ccc(C(=O)N(CCN(C)C)Cc2c(-c3ccccc3)noc2N2CCCCC2C)cc1 (stereo not given)
 : 11	11
82: O=S(=O)(Nc1nc2ccccc2nc1N1CCCC1)c1ccccc1Cl
 : 8	12
83: O=[N+]([O-])c1ccc(N=Nc2c(O)[nH]c3ccc(F)cc23)c([N+](=O)[O-])c1
 : -1	8
84: COc1cc(NC(=S)N2CC(=O)N3CCc4ccc(Cl)cc4C3C2)cc(OC)c1 (stereo not given)
 : 21	23
85: CCn1c(C(C)NCc2ccco2)nc2ccc(Cl)cc2c1=O (stereo not given)
 : 0	11
86: CSc1nc2ncc3c(=O)n(-c4ccc(C(C)C)cc4)ccc3n2n1
 : 3	7
87: O=C(OCc1cc(-c2ccccc2F)on1)c1cc2ccccc2oc1=O
 : -2	-3
88: Cc1oc(-c2cccc(Oc3ccccc3)c2)nc1CN1CCNC(=O)C1C (stereo not given)
 : -11	-11
89: Cc1nnc(SCC(=O)N(c2ccccc2)c2ccccc2)n1-n1cccc1
 : -1	0
90: Cn1c(=O)[nH]c(=O)c2c1nc(N1CCc3ccccc3C1)n2Cc1ccccc1Cl
 : 12	9
91: O=S(=O)(NCCOc1ccccc1)c1ccccc1Br
 : 0	0
92: COc1ccc(CNS(=O)(=O)c2c(Cl)cc(Br)cc2Cl)cn1
 : -2	2
93: Cc1ncc(C(=O)N2CCCC2C(=O)Nc2cc(Cl)cc(Cl)c2)s1 (stereo not given)
 : 9	8
94: O=C(Nc1nc(-c2cccs2)cs1)c1ccc(=O)[nH]c1
 : 0	-1

These rows are one share of the data. The share of hits here may be higher or lower than overall.
